CDC25B CDK2 inh – primary biochemical HTRF screen for blockers of M-phase inducer phosphatase 2 binding to CDK2/cyclin A | P30305+P24941 | HTRF CDC25B-CDK2/CyclinA binding, anti-His/anti-Flag; hits give high values | z-score (concentration not given with the values) | 0.72% of 94,000 active;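 also: score is relative to mean and SD of negative controls; strong numbers were not always called active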
TAR Tat displ – TAR RNA-Tat peptide displacers, HIV-1, primary screen, biochemical, FRET, FAM/TAMRA-labeled Tat; HIV-1 TAR RNA, Tat peptide displacement FRET; hits give high values; z-score (no concentration beside the values); 0.6% of 100,000 active;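 also: score is relative to mean and SD of negative controls; some compounds called inactive have numbers as strong as hits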
* = called active by the depositor; . = no result given.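 The calls were made as follows: active = z-score from 3 up in half or more of its runs; inactive = the rest.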

SMILES	CDC25B CDK2 inh	TAR Tat displ
Cn1c(C(=O)N2CCN(C(=O)c3ccco3)CC2)cc2c(=O)[nH]c3ccccc3c21	18.3*	0.35
CCOCCOC(=O)C1=C(C)NC2=C(C(=O)CC(c3cccs3)C2)C1c1ccc(OC(C)=O)cc1 (stereo not drawn)	0.52	0.41
Cc1ccc(C)c(N(C)C(=O)c2sc3nc4n(c(=O)c3c2C)CCCC4)c1	.	-1.16
Cc1csc2nc(CNS(=O)(=O)c3ccc4c(c3)CCCC4)cn12	0.83	0.16
COc1ccc(NC(=O)c2ccc(-c3ccccc3F)cc2)cc1	-1.26	.
Cc1cc(C)cc(S(=O)(=O)NCCn2nc(-c3ccc(F)cc3)ccc2=O)c1	.	0.42
O=C1N(c2ccc(F)cc2)C2CS(=O)(=O)CC2N1c1ccc(F)cc1 (stereo not drawn)	0.58	1.33
CCC1Sc2ccc(S(=O)(=O)CCC(=O)NCCc3sccc3C)cc2NC1=O (stereo not drawn)	.	-0.87
CC(C)N(C(=O)Cn1c(C2CC(=O)N(c3ccc(F)cc3)C2)nc2ccccc21)c1ccccc1 (stereo not drawn)	-1.58	0.25
CC1(C)N=c2ccc([N+](=O)[O-])cc2=N1	-0.74	.
Cc1cc(N)n2nc(-c3ccc(C(C)(C)C)cc3)cc2n1	1.7	1.52
CCc1nn(CC(=O)N2CCC(C(N)=O)CC2)c(=O)c2cc3occc3n12	-1.15	3.41
Cn1cnc(S(=O)(=O)Oc2ccc(Cl)cc2)c1	-1.78	.
C=CCNC(=O)C1C(=O)NC2(C)CC1c1ccccc1O2 (stereo not drawn)	12.7	.
C=CCN1C(=O)C2CCCCN2c2ccc(C(=O)NCCN3CCOCC3)cc21 (stereo not drawn)	.	0.72
Cc1nn(C)cc1CNC(=O)C1C2CCC(C2)C1C(=O)O (stereo not drawn)	-1.42	0.29
O=C(C1COc2cc(S(=O)(=O)N(Cc3ccco3)C3CCCCC3)ccc2O1)N1CCCCC1 (stereo not drawn)	.	0.27
CC1(C)OC(=O)C(=Cc2ccc(Oc3ccccc3)nc2)C(=O)O1	2.1	.
O=C(Nc1ccc(NC(=O)c2cccs2)cc1)c1ccc2c(c1)OCCO2	-1.66	.
CCOC(=O)c1nn(-c2ccccc2)c(=O)cc1NC1CCCCC1	.	1.51
Cc1ccc2oc3c(c(=O)c2c1)C(c1ccc(C(C)(C)C)cc1)N(CCCN1CCOCC1)C3=O (stereo not drawn)	-1.09	0
O=C(Nc1cccc(C(F)(F)F)c1)c1ccc(-c2ccc(Cl)cc2Cl)o1	-1.73	.
Cc1sc2c(c1C)CSC(C(=O)Nc1cccc(Cl)c1)=C2	.	-5.15
CCOC(=O)CSc1nnc2c3ccccc3c3ccccc3c2n1	-7.87	.
COc1ccc(S(=O)(=O)Nc2ccc3oc(=O)sc3c2)cc1OC	-1.82	0.22

Looked up above:
Cn1c(C(=O)N2CCN(C(=O)c3ccco3)CC2)cc2c(=O)[nH]c3ccccc3c21 @ CDC25B CDK2 inh: 18.3*
Cc1ccc2oc3c(c(=O)c2c1)C(c1ccc(C(C)(C)C)cc1)N(CCCN1CCOCC1)C3=O (stereo not drawn) @ CDC25B CDK2 inh: -1.09

Remaining list, next part
SMILES	CDC25B CDK2 inh	TAR Tat displ
O=C(CCS(=O)(=O)c1ccc(F)cc1)Nc1nc(-c2nc3ccccc3s2)cs1	.	0.57
Cc1ccc(C2Nc3ccccc3-n3cc4c(=O)n(C)c(=O)n(C)c4c32)c(O)c1 (stereo not drawn)	2.74	1.42
CCOC(=O)C1=C(C)Nc2nnnn2C1c1ccc(Cl)cc1 (stereo not drawn)	-0.62	0.3
Cc1cc(-c2ccccc2)n(-c2cc(Cl)ncn2)n1	-0.54	.
Cc1csc(NC(=O)CN2C(=O)C(C)(C)c3cc(S(=O)(=O)N4CCC(C)CC4)ccc32)n1	.	0.26
COC(=O)CSc1ccc2nnc(-c3cccc(F)c3)n2n1	-0.84	.
CCOc1ccc(-c2nc(CSc3nc4ncccc4o3)c(C)o2)cc1OC	.	0.05
Cc1cc(-c2nnc(-c3ccc(C(F)(F)F)cn3)o2)no1	-1.32	.
O=C(c1ccco1)N1CCC(c2nc3ccccc3o2)CC1	-0.96	1.78
O=S(=O)(NCCCCN1CCN(c2ncccc2C(F)(F)F)CC1)c1ccc(Cl)cc1	0.03	.
CS(=O)(=O)n1nc(-c2ccco2)nc1NCc1ccc(Br)cc1	0.02	0.8
CCCN1CCc2nc(Nc3ccc4c(c3)OCO4)ncc2C1	.	1.57
O=C(Nc1ccc(OCc2cc(=O)n3ccccc3n2)cc1)c1cccs1	.	-2.56
COc1ccc2[nH]c(C(=O)N(C)C3CCN(C)CC3)cc2c1	-0.3	.
O=C(CN1C(=O)c2cccnc2Oc2ccccc21)N1CCN(c2ccccc2)CC1	.	1.53
Cc1ccc(-n2c(=O)c3sccc3n(Cc3cc(=O)n4ccccc4n3)c2=O)cc1	1.02	.
Cc1ccc(-c2noc(-c3nnn(-c4ccc(Cl)cc4)c3C)n2)cc1	.	1.24
CC1CCc2c(cnc3c(C(=O)NCCN4CCN(C)CC4)cnn23)C1 (stereo not drawn)	.	-0.43
CCOC(=O)CSC1=C(C#N)C(c2ccc(Br)cc2)CC(=O)N1 (stereo not drawn)	-2.14	0.91
COc1ccc(Cl)cc1NC(=O)Nc1csc2c1CCCC2	0.52	0.76
O=C(c1ccc(Cl)cc1)n1c(=O)oc2ccccc21	-0.81	.
CCC(=O)Nc1nnc(S(=O)(=O)N2CCCCC2)s1	-1.75	1.49
Cc1c(C(=O)CC2OC(=O)C(Cl)=C2Cl)sc2ccc(Cl)cc12 (stereo not drawn)	-1.96	.
CCOC(=O)N1CCN(c2c(NC3CCC(C)CC3)c(=O)c2=O)CC1 (stereo not drawn)	-0.75	0.51
CCOC(=O)c1c(NC(=O)Cc2coc3c(C)c(C)ccc23)sc(C)c1C	-3.51	2.76

Of the compounds above, these have a tert-butyl group:
SMILES	CDC25B CDK2 inh	TAR Tat displ
Cc1cc(N)n2nc(-c3ccc(C(C)(C)C)cc3)cc2n1	1.7	1.52
Cc1ccc2oc3c(c(=O)c2c1)C(c1ccc(C(C)(C)C)cc1)N(CCCN1CCOCC1)C3=O (stereo not drawn)	-1.09	0

Exported as comma-separated lines: part of the list above
Structure,CDC25B CDK2 inh,TAR Tat displ
COc1ccc2[nH]c(C(=O)N(C)C3CCN(C)CC3)cc2c1,-0.3,.
O=C(CN1C(=O)c2cccnc2Oc2ccccc21)N1CCN(c2ccccc2)CC1,.,1.53
Cc1ccc(-n2c(=O)c3sccc3n(Cc3cc(=O)n4ccccc4n3)c2=O)cc1,1.02,.
Cc1ccc(-c2noc(-c3nnn(-c4ccc(Cl)cc4)c3C)n2)cc1,.,1.24
CC1CCc2c(cnc3c(C(=O)NCCN4CCN(C)CC4)cnn23)C1 (stereo not drawn),.,-0.43
CCOC(=O)CSC1=C(C#N)C(c2ccc(Br)cc2)CC(=O)N1 (stereo not drawn),-2.14,0.91
COc1ccc(Cl)cc1NC(=O)Nc1csc2c1CCCC2,0.52,0.76

Next part:
SMILES	CDC25B CDK2 inh	TAR Tat displ
COCCCn1c2c(c(=O)[nH]c1=O)C(c1cccc3ccccc13)C1=C(N2)c2ccccc2C1=O (stereo not drawn)	-0.54	0.29
COc1ccc(-c2noc(CSc3nnc(-c4ccncc4)n3-c3ccc(C)cc3)n2)cc1OC	-0.84	0.32
CC(=O)Nc1ccccc1SCc1cc(=O)n2nc(C)sc2n1	.	0.11
CC(C)CNCC1COc2ccccc2O1 (stereo not drawn)	-0.28	-1.16
c1ccc(-c2nn3c(-c4ccncc4)nnc3c3ccccc23)cc1	-1.95	2.17
O=c1cc(CSc2ncnc3c2sc2ccccc23)nc2ccccn12	-0.71	.
COc1ccc(OC)c(C2CC(=O)Nc3nc(N)[nH]c(=O)c32)c1 (stereo not drawn)	-1.59	-1.28
C=CCOc1cccc(C2c3c(oc4ccc(F)cc4c3=O)C(=O)N2Cc2ccc3c(c2)OCO3)c1 (stereo not drawn)	-0.75	-0.13
CCCCNc1oc(-c2ccc(COc3ccc(Cl)cc3)o2)nc1C#N	-1.91	1.76
CCc1ccc(-n2nnnc2/C=C/N2CCOCC2)cc1	-0.8	.
CCOC(=O)N1CCN(c2nc(C)c3c(n2)CC(c2ccc(Cl)cc2)CC3=O)CC1 (stereo not drawn)	-0.36	-2.11
CC(C)CNc1nc(Oc2ccc(OC(C)C)nn2)nc(N2CCOCC2)n1	-0.37	1.1
O=C(NCC1CCCO1)c1cc(OCc2ccccc2)nc2ccccc12 (stereo not drawn)	.	0.61
CCS(=O)(=O)Nc1ccc2c(c1)CC(=O)N2C	.	2.24
COC(=O)c1ccc(CN(C)C)o1	-2.8	-0.9
CC(C)COc1ccccc1C1C=C(C(=O)O)Nc2nnnn21 (stereo not drawn)	.	1.8
NNC(=O)C1C(C(=O)NN)C1c1ccccc1 (stereo not drawn)	-0.7	.
NNC(=O)c1cc(-c2ccccc2)n[nH]1	-2.04	.
CCOc1ccc(C2C(C(=O)OC(C)C)=C(C)NC3=C2C(=O)CC(c2ccc(OC)cc2)C3)cc1 (stereo not drawn)	0.18	0.76
Cc1n[nH]c(C)c1CCc1nc2c3ccccc3nc(NCCCOC(C)C)n2n1	0.19	1.1
Cc1cc(=O)n2c(C(=O)Nc3ccc(Cl)cc3)c(C(=O)Nc3ccccc3)sc2n1	-3.41	1.64
O=C(NC1COc2ccccc2C1)N1CCCCC1 (stereo not drawn)	.	1.87
CCC(=O)O[C@H]1CCC2C3CCc4cc(O)ccc4C3CC[C@@]21C (stereo partly drawn)	.	0.58
O=c1nc2c(-c3ccccc3F)n[nH]n2c2ccc(Cl)cc12	-6.81	1.18
CCc1nc2sc3c(NCC4CCCO4)ncnc3c2c2c1CCCC2 (stereo not drawn)	-1.33	.

(continued)
SMILES	CDC25B CDK2 inh	TAR Tat displ
CC(C)(C)c1nnc2sc(-c3cccs3)nn12	0.32	0.98
C=CCOC(=O)C1=C(C)NC2=C(C(=O)CC(C)(C)C2)C1c1ccc(OC)c(OC)c1 (stereo not drawn)	-1.67	0.62
COc1cccc(-c2cc(=O)n3c(nc4ccccc43)[nH]2)c1	-1.11	-0.74
CCc1nc2cc3sc(CC)nc3cc2s1	0.19	0.55
Cc1oc(-c2cccs2)nc1CSc1nncn2c1cc1occc12	.	-13.8
CC(C)NC(=O)C1CCCN(c2ncnc3c2nc2n3CCCCC2)C1 (stereo not drawn)	.	1.04
CC1(C)Cc2cccc(C(=O)NC3CCN(Cc4ccccc4)CC3)c2O1	-1.47	.
C=CCNc1nc(Nc2ccc(F)cc2)c2cnn(C)c2n1	.	-0.16
Cc1ccc2nc(-c3ccccn3)c(Nc3ccccc3)n2c1	0.16	.
CCc1nn(C(C)C(=O)NCCCN(CC)CC)c(=O)c2cc3occc3n12 (stereo not drawn)	0.1	-0.48
Nc1ccc(OCc2ccccc2Cl)cc1	-0.27	-1.75
CCCCCn1c(SCC(=O)N2CCC(C(F)(F)F)CC2)n[nH]c1=O	-0.25	.
Cc1cccc(NC(=O)C2CCN(S(=O)(=O)c3ccc4c(c3)CC(C)N4C(=O)C3CC3)CC2)n1 (stereo not drawn)	.	0.32
Cc1ccccc1CN1C(=O)C(O)(CC(=O)c2cccs2)c2ccccc21 (stereo not drawn)	-2.37	.
CSc1ncnc2c1sc1nc(N3CCCC3)c3c(c12)CC(C)(C)OC3	0.66	0.51
NC(N)=NCCC[C@H](NC(=O)[C@@H]1CCCN1C(=O)[C@H](N)Cc1ccccc1)C(=O)CCl	.	0.9
CCc1nn(CC(=O)NCCCN2CCOCC2)c(=O)c2cc3cc(F)ccc3n12	-0.52	-0.16
Cc1nnc2sc(SCC(=O)N3CCC(C)CC3)nn2c1=O	.	0.44
COC(=O)c1c(SCc2ccccc2Cl)[nH]c2ccccc2c1=O	.	0.04
CC(C)n1c(=O)c(=O)[nH]c2cc(-c3noc(-c4cc5ccccc5[nH]4)n3)ccc21	.	0.74
O=C(NC1CCCCCC1)C1c2ccccc2C(=O)N1Cc1ccco1 (stereo not drawn)	-0.95	.
CCn1c(=S)[nH]c2sc(C)c(C)c2c1=O	1.07	.
CN(CC(=O)N1CCN(c2ccccn2)CC1)S(=O)(=O)c1ccc2c(c1)NC(=O)CS2	.	3.78
Cc1cc(C)c(S(=O)(=O)NCC(c2cccnc2)N2CCN(Cc3ccccc3)CC2)c(C)c1 (stereo not drawn)	-1.8	0.83
CCOC(=O)C1CCN(C(C(=O)Nc2ccc3c(c2)OCO3)c2ccccc2)CC1 (stereo not drawn)	-0.16	.

The closing 2 entries of the section above open the next one:
SMILES	CDC25B CDK2 inh	TAR Tat displ
Cc1cc(C)c(S(=O)(=O)NCC(c2cccnc2)N2CCN(Cc3ccccc3)CC2)c(C)c1 (stereo not drawn)	-1.8	0.83
CCOC(=O)C1CCN(C(C(=O)Nc2ccc3c(c2)OCO3)c2ccccc2)CC1 (stereo not drawn)	-0.16	.
O=C(CCC1CCCCC1)Nc1nnc2n1CCS2	.	0.38
Cc1c(O)ccc2c(=O)c(-c3cc4ccccc4o3)coc12	-0.05	.
CSc1sc(C(=O)O)c(C)c1C(C)=O	-1.62	.
O=C(CSc1cn(CC(=O)N2CCCC2)c2ccccc12)Nc1ccccc1F	.	-0.81
Cc1sc2c(c1C)CSC(C(=O)Oc1cncc(Cl)c1)=C2	.	0.9
CC12CN3CC(C)(CN(C1)C3c1ccc(OCc3ccccc3)cc1)C2O (stereo not drawn)	-0.25	0.18
CCOC(=O)c1c(S(=O)(=O)Nc2cccc(SC)c2)c(C)n(C)c1C	.	0.19
O=C(CSc1ccc2nnc(-c3cccc(F)c3)n2n1)NCC1CCCO1 (stereo not drawn)	-1.11	.
COc1ccc(OC)c(NC(=O)CSc2ncc3c(n2)-c2ccccc2N(C)S3(=O)=O)c1	.	-2.05
Cc1c(C(=O)N2CCOCC2)c(S(=O)(=O)NC2CCCCC2)c(C)n1C	.	-0.68
O=c1[nH]ccc2c(O)cccc12	-1	.

From PubChem

Compounds were not picked by outcome (roughly 0.89% active in at least one column).
